Screens: PubChem BioAssay, National Center for Advancing Translational Sciences (NCATS)
A647 fluor – qHTS Assay for Spectroscopic Profiling in A647 Spectral Region; max dye-equivalent concentration, M; AID 592, 2007; Compound fluorescence, A647 channel (570/671 nm), Tris buffer; 59,000 tested, under 10 active; active means above 1 µM dye equivalent; inconclusive means 0.1 to 1 µM; inactive means 0.1 µM or less;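 note: values scaled relative to a standard on each plate; highest value over a series up to 38 µM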
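Compounds pinned into 100 mM Tris pH 8.0, 15 min at room temperature, then read with 570 nm excitation/671 nm emission filters. Fluorescence normalized to an on-plate six-point Alexa 647 standard curve, giving dye-equivalent concentration per compound concentration.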
AID923 – qHTS Assay for Allosteric/Competitive Inhibitors of Caspase-1: Spectroscopic Profiling in AFC Spectral Region; compound fluorescence, AFC spectral region (405/520 nm); almost no hit is shown here; Potency, µM (doses to about 57.5 µM), for the others: at the highest dose fluorescence increase, hits mostly activators; hit rate 1.1% among 75,000; AID 923, 2007; active = well fitted activation curve with a large enough effect; inconclusive = small, poorly fitted or top-dose-only effect;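 note: potency is the fitted concentration of half-maximal effect; 0% is about no effect; scaled to a free AFC standard on each plate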
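Compound autofluorescence profiled at 405 nm ex/520 nm em during kinetic caspase 1 run (50 nM enzyme, 5 uM Ac-WEHD-AFC, HEPES pH 7.5, 10 mM DTT). Titration up to 57 uM; baseline from regression intercept, normalized to AFC standard curve.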
TSHR ag – qHTS Assay for Agonists of the Thyroid Stimulating Hormone Receptor; HEK293-CNG-TSHR cells (CNG channel as cAMP sensor), membrane potential dye, cAMP; Thyrotropin receptor (Homo sapiens), P16473; Potency, µM (top dose mostly 57.1 µM), without a hit: at the highest dose activation, actives largely listed as activators; hit rate 0.48% among 73,000; active = well fitted activation curve of enough size with the parental cells flat; inconclusive = any curve in the parental cells; inactive = parental cells flat and receptor cells flat or falling; note: potency is the fitted concentration of half-maximal effect; % of control where 0% means no effect; weak receptor curves with flat parental cells got no call and are not listed
Target sequence (P16473 whole entry, looked up): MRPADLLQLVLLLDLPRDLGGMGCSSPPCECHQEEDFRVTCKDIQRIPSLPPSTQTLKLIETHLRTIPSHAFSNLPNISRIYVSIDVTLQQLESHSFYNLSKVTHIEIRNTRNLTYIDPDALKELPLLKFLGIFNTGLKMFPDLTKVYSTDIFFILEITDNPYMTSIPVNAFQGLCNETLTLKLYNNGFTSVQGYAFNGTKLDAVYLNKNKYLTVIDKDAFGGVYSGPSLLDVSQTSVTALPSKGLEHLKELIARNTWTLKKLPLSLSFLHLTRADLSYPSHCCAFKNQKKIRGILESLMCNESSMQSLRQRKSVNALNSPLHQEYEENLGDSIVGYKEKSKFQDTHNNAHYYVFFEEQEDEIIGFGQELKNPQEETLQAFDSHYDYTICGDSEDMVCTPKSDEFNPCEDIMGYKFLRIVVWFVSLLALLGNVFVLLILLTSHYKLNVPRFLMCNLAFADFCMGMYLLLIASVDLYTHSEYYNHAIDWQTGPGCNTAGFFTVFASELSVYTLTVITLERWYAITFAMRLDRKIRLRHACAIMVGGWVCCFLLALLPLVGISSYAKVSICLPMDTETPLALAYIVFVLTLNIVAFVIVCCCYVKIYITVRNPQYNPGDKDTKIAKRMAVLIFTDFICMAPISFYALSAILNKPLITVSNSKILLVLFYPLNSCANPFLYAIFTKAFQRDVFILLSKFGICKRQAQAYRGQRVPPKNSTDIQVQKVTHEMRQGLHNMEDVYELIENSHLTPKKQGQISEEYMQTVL
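HEK 293 cells stably expressing TSHR and a cAMP-gated CNG channel; parental CNG-only cells as counterscreen. Cells preloaded 60 min with membrane potential dye plus 100 uM RO 20-1724, then compound 30 min; fluorescence read at 590 nm.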
Resorufin fluor – qHTS Assay for Spectroscopic Profiling in Resorufin Spectral Region; Compound fluorescence, resorufin region 547/598 nm, buffer; hits give high values; AID 588, 2007; hit rate 0.04% among 59,000; max dye-equivalent concentration, M; active = above 10 nM dye equivalent; inconclusive = 1 to 10 nM; inactive = 1 nM or less; a few of its hits are not listed in these tables; note: highest value over a series up to 38 µM
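Intrinsic fluorescence profiled in the resorufin window (ex 547 nm, em 598 nm) after 15 min at room temperature in pH 8.0 Tris buffer (100 mM); responses normalized against a six-point resorufin standard series as dye-equivalent concentration.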
A488 autofl – qHTS Assay for Spectroscopic Profiling in A488 Spectral Region. hit rate 0.1% among 59,000. compound autofluorescence, A488 spectral region, dye equivalency; hits give high values. max dye equivalency, M; active = above 10 nM dye equivalent; inconclusive = 1 to 10 nM; inactive = 1 nM or less; about half of its hits are not listed in these tables;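 note: highest value over a series up to 38 µM; compound alone in buffer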
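Readout is A488 dye-equivalent concentration, calibrated by a per-plate six-point Alexa 488 series. Compounds in 100 mM Tris buffer pH 8.0 were incubated 15 min at room temperature. Plates were imaged using 480 nm excitation/540 nm emission filters.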
Starred values were filed as active, the others as inactive; i = inactive; ? = inconclusive; / = not tested or not shown; [ ] = dose if it differs, or a comment.

SMILES	A488 autofl	AID923	TSHR ag	A647 fluor	Resorufin fluor
CC(=O)N1CCN(c2ccc(NCc3ccc4c(c3)OCO4)cc2)CC1	i	-1.4%	2%	1e-09	i
Cc1noc(C)c1CSc1ncnc2sc3c(c12)CCC3	i	-0.7%	2%	5.1e-08	i
OC(c1cccnc1)c1cccs1 (centres undefined)	i	0.0%	?	2e-08	i
CCOC(=O)/C(C#N)=C1/SC(CC)C(=O)N1c1ccc(C)cc1 (centres undefined)	i	-1.8%	-12%	1e-09	i
COC(=O)c1[nH]c(C)c(/C(O)=C2\C(=O)C(=O)N(CCN(C)C)C2c2ccco2)c1C (centres undefined)	i	0.7%	/	1.9e-08	i
Cc1ccc(C(=O)Nc2ncc(Cc3ccccc3)s2)o1	i	-0.5%	6%	1.5e-08	i
O=C1CCCc2[nH]nc(-c3cccnc3)c21	i	-1.5%	-2%	1.1e-08	i
C=CCNC(=O)c1oc2ccc(S(=O)(=O)N(CC)CC)cc2c1C	i	-1.7%	14%	6.1e-09	i
COc1ccc2oc(C(=O)C3CC3)c(NC(=O)CCCN3C(=O)c4ccccc4C3=O)c2c1	/	0.4%	5%	/	/
N#C/C(=C\c1ccc(O)c(O)c1)C(N)=O	/	0.9%	3%	/	/
CNc1ccnc(-c2ccccc2CN(C)C)n1	i	0.6%	0%	1.3e-09	i
COC(=O)n1ccc(C(=O)Nc2ccccc2F)n1	i	0.7%	-2%	3.5e-09	i
COC(=O)CN(c1ccccn1)S(=O)(=O)c1ccccc1	i	-0.3%	2%	1e-09	i
COCC(=O)Nc1sc2c(c1C(=O)OC)CCC(C)C2 (centres undefined)	i	1.1%	10%	6.1e-08	i
COc1cccc(N2CCN(CC(=O)c3c[nH]c4ccc(OC)cc34)CC2C)c1 (centres undefined)	i	2.8%	-3%	2.5e-08	i
COC(=O)N1CCC2(CCCN(Cc3nccs3)C2)CC1	i	1.1%	?	1e-09	i
Cc1ccc(CNc2oc(-c3cccs3)nc2C#N)cc1	i	-1.2%	?	1.9e-08	i
CCOc1ccc(OCC)c(Nc2cc(C)nc3nc(C)nn23)c1	/	-0.9%	23%	/	/
CCn1c(C)nc2cc(C(=O)OC(C(F)(F)C(F)F)C(F)(F)C(F)F)ccc21	i	-1.1%	?	8.9e-09	i
O=C1C2C(C(=O)N1c1ccncc1)C1C=CC2C12CC2 (centres undefined)	i	-1.6%	2%	2.3e-08	i
CCCCCCNS(=O)(=O)c1ccc(Cl)s1	i	-1.4%	/	3.3e-09	i
CCOc1cc(C(=O)NCc2nnc(SCC(=O)OC)n2C)cc(OCC)c1OCC	i	-1.1%	0%	3.2e-08	i
O=C(Nc1ccc(SC(F)F)cc1)C1=COCCO1	i	0.2%	-3%	6.3e-09	i
O=C(CSC1=NCCS1)Nc1nc2c(s1)CCCC2	i	0.0%	-5%	5.7e-09	i
CCn1c(SCC(N)=O)nnc1-c1ccc(S(=O)(=O)N2CCN(C)CC2)cc1	i	3.7%	0%	3.7e-09	i
CC(C)n1c(CCCO)nc2ccccc21	/	-0.6%	2%[11.4 µM]	/	/
O=c1cc(CSc2ccc(Cl)cc2)nc(N2CCOCC2)[nH]1	i	-1.7%	1%	7.8e-09	i
CCOC(=O)c1c(C)oc2c(CN3CCN(C)CC3)c(Br)c(OC)c(O)c12	i	-1.2%	-11%	3.1e-08	i
CCOC(=O)c1[nH]c(C)c(C(=O)Nc2cc(Cl)ccc2C)c1C	i	0.4%	21%[11.4 µM]	1e-09	i
CCOC(=O)C(C)n1cnc2c(nnn2-c2ccc(C)cc2)c1=O (centres undefined)	i	1.1%	11%	1.1e-09	i
CCc1ccc(C(C)NC(=O)c2cc(C)oc2C)cc1 (centres undefined)	i	1.6%	-12%	1.5e-09	i
CCCCc1cc(=O)oc2cc(C)c(CN3CCCC3)c(O)c12	i	-0.9%	-9%	1e-09	i
CCCn1c(CN(Cc2ccccc2)Cc2ccccc2)nc2c1c(=O)n(C)c(=O)n2C	/	2.5%	?	/	/
CC1CCCCN1C(=O)N[C@@H](Cc1ccccc1)C(=O)O (some centres undefined)	i	1.1%	-1%	2.6e-08	i
Cc1noc(C)c1COC(=O)c1ccccc1Oc1ccccc1	i	-1.1%	?	2.8e-09	i
COc1ccc(Nc2ncccc2C(=O)Nc2ccccc2)cc1	i	-0.8%	-7%[11.4 µM]	1e-09	i
CCOCCn1c(=O)c2c(nc3n2CCN3c2ccc(CC)cc2)n(C)c1=O	i	-0.1%	-12%	2.5e-08	i
Cc1noc(C)c1C(=O)N1CCC[C@@]2(CCN(C(=O)NC(C)C)C2)C1	i	0.4%	2%	9.1e-09	i
O=C(CN1CCN(C(=O)c2ccco2)CC1)Nc1ccc2c(c1)OCCO2	i	0.4%	-5%	9.8e-09	i
Cc1cc(=O)oc(C)c1C(=O)Nc1cccc2nonc12	i	/	/	2.9e-08	i
CCOC(=O)c1cnc(SCC(=O)Nc2ccc(NC(=O)CC)c(OC)c2)nc1N	i	-0.8%	-1%	1.9e-09	i
Cc1cccc(OCCCCc2c(C)n[nH]c2C)c1C	/	0.1%	24%	/	/
Nc1nnc(C2CCCC2)s1	/	0.5%	4%	/	/
C=CCn1c(SCC(=O)Nc2cc(C)cc(C)c2)nnc1-c1cnccn1	i	-1.1%	-3%	1.8e-08	i
CC1CCC(NC(=O)C2(C)CCC(=O)N2Cc2cccnc2)CC1 (centres undefined)	/	0.9%	0%	/	/
CCCCOC(=O)c1cc2c(cn1)[nH]c1ccccc12	/	-4.8%	?	/	/
COCCNC(=O)C(c1ccco1)N(C(=O)Cn1nnc2ccccc21)c1ccc(C)cc1C (centres undefined)	i	0.7%	3%	5e-09	i
COc1c(C)cc(Br)cc1C(=O)NCc1cccnc1	i	1.3%	5%	1e-09	i
COc1cccc(CN(Cc2cccnc2)S(=O)(=O)c2ccc(-n3cnnn3)c(C)c2)c1	i	2.4%	13%	1e-09	i
CCCc1cc(Nc2cccc(OCC)c2)n2ncnc2n1	i	-3.0%	/	3.1e-08	i
C=CCOCC1CN2C(CCC(C)C2c2ccc(Br)cc2)C(=O)O1 (centres undefined)	/	-1.8%[11.5 µM]	9%[11.4 µM]	/	/
COC(=O)c1ccc(C(NC(=O)OCc2ccccc2)/C(=C/[C@@H](C)C(=O)NCCF)c2cccnc2)cc1 (some centres undefined)	/	-1.1%	?	/	/
COC(=O)c1ccccc1S(=O)(=O)Nc1ccc2cn[nH]c2c1	i	-0.9%	10%	2.1e-09	i
COc1ccc(CN(C2CCCC2)S(=O)(=O)c2ccc(-n3cnnn3)cc2)cc1OC	i	2.7%	12%	3.4e-08	i
CCC(C)[C@H](NC(=O)Nc1ccc2c(c1)OCCO2)C(=O)O (some centres undefined)	i	0.8%	1%	3.8e-08	i
Cc1cc(C)n(CC(=O)NC2CCCCC2)n1	i	-0.9%	5%	1.4e-09	i
O=C(OCn1nnc2ccccc2c1=O)c1ccc2c(=O)n3c(nc2c1)CCC3	i	2.1%	-1%	6.4e-09	i
Cc1cc(NS(=O)(=O)c2ccc(Nc3nc(-c4sc(N)nc4C)cs3)cc2)no1	/	3.1%	-5%	/	/
COC(=O)Cc1c[nH]c2ccc(OCC(O)CNC(C)C)cc12 (centres undefined)	i	0.2%	-3%	1e-09	i
CC(C)c1ccc(OCc2ccc(C(=O)N3CCN(c4ccccn4)CC3)cc2)cc1	i	-0.1%	15%	2.5e-08	i

(list continues)
SMILES	A488 autofl	AID923	TSHR ag	A647 fluor	Resorufin fluor
Cc1ccccc1-c1nnc(SCc2ccccc2)o1	i	0.4%	26%	7.1e-09	i
CCOC(=O)c1cnc(SCC(=O)N2CCN(C(=O)c3ccco3)CC2)nc1N	i	0.3%	10%	1.9e-09	i
O=C(Nc1ccc2oc(-c3ccccc3F)nc2c1)c1ccc2c(c1)OCCO2	i	0.5%	0%[11.4 µM]	9.8e-09	i
O=C(Cn1c(C2CC2)nc2ccccc2c1=O)Nc1ccc(Br)cc1	i	-0.7%	16%	3.3e-09	i
CC1CC1C(=O)OCc1cc(=O)n2cc(Br)ccc2n1 (centres undefined)	i	1.6%	-2%	3.6e-08	i
C(=C\c1ccco1)/C=N/n1cnnc1	i	1.7%	-1%	1e-09	i
COc1ccc(OC(=O)c2cccc(S(=O)(=O)N3CCCC3)c2)cc1	i	1.6%	20%	8.7e-09	i
COc1ccc(C(=O)CSc2nc(SC)ns2)cc1OC	i	-1.5%	?	3.9e-08	i
O=C(CN1CCOCC1)N1CCN(C(=O)CN2CCOCC2)CC1	i	1.4%	?	4.2e-08	i
COC(=O)c1ccc(C(=O)OC)c(NC(=O)CCC(=O)O)c1	/	15%	-15%	/	/
O=C(CSc1nnc(-c2ccc(Br)cc2)n1C1CCCCC1)N1CCCC1	i	-0.6%	22%	1.6e-08	i
c1ccc2c(c1)ncn2Cc1nnc2sc(-c3ccc4c(c3)OCO4)nn12	i	-0.3%	?	2.1e-08	i
Cc1nn(-c2ccccc2)c(C)c1C(=O)OCC(=O)Nc1ccc2c(c1)OCO2	i	-0.6%	12%	4.4e-09	i
COc1cccc(CCC(=O)O)c1OC	i	-1.5%	5%	1e-09	i
COc1cc2c(cc1OC)-c1nnc(C)n1C(C)(C)C2	/	0.1%	4%	/	/
O=C(CSc1nc2c(c(=O)n1-c1ccc(Cl)cc1)SCC2)Nc1nccs1	i	-0.1%	25%[11.4 µM]	2.5e-09	i
CCOCCN(C=O)c1cccc(OC)c1	i	0.5%	0%	1e-09	i
Cc1nc(CNS(=O)(=O)c2cccc(F)c2)cs1	i	0.8%	1%[11.4 µM]	1e-09	i
Cc1cc(N2CCOCC2)c2c(N)c(C)cc(C)c2n1	i	-0.2%	?	4.5e-09	i
COc1cc(C2c3c(oc4ccccc4c3=O)C(=O)N2Cc2cccnc2)cc(OC)c1OC (centres undefined)	i	-1.6%	1%	3.2e-09	i
COCCCNCCOCCOc1c(OC)cccc1OC	/	1.9%	0%	/	/
Brc1ccccc1-c1nc(-c2ccccc2)no1	/	2.8%	18%[11.4 µM]	/	/
Cc1cccc(OCc2nc(C#N)c(N3CC(C)CC(C)C3)o2)c1 (centres undefined)	/	-0.2%	?	/	/
CC(C)(Oc1ccc(Cl)cc1)C(=O)Nc1cccnc1	/	0.2%	5%	/	/

2 compounds from above with just Resorufin fluor.
Molecule,Resorufin fluor
COC(=O)N1CCC2(CCCN(Cc3nccs3)C2)CC1,i
Cc1ccc(CNc2oc(-c3cccs3)nc2C#N)cc1,i

Next part
SMILES	A488 autofl	AID923	TSHR ag	A647 fluor	Resorufin fluor
O=C1CC(N2CCOCC2)C(=O)N1CCc1ccccc1 (centres undefined)	i	0.6%	1%	1e-09	i
c1ccc(Nc2ncnc3c2oc2ccccc23)cc1	i	1.8%	?	1.5e-08	i
O=C(O)C[C@@H]1CCCc2ccccc2[C@H]1O	i	-1.7%	?	1.7e-09	i
CCOC(=O)c1ccc(NC(=O)N2CCN(CCc3ccccc3)CC2)cc1	i	-1.7%	1%	3.9e-08	i

Only part of the results is shown, so the mix of outcomes need not match the whole.
